# SARS PLpro yeast: qHTS of Yeast-based Assay for SARS-CoV PLP; Potency, µM (highest dose often 32.9 µM), for the others: top-dose activity, positive = growth rescue; hit rate 0.19% among 330,000; S. cerevisiae expressing SARS-CoV PLpro, growth rescue; control for the full effect not named in the record; further: 0% is about no effect; nearly all actives have a fitted effect of over 55% in size; growth read by luminescence after 48 h
# 2A StopGo: High Throughput Screening for Foot and Mouth Disease Virus Antivirals | human cells with a luciferase reporter of 2A StopGo recoding; control for the full effect not named in the record | Potency, µM (highest dose often 57.9 µM), for the others: at the top dose signal change, negative = less light | hit rate 1.2% among 410,000 | AID 1159524, 2015; active = well fitted falling curve with a large enough effect; inconclusive = small, poorly fitted or top-dose-only effect; inactive = no such curve, though single readings can be large or run the other way; tested in HEK293T cells; further: on the % scale 0 is the no-effect control and ±100 the full control effect; nearly all actives have a fitted effect of over 45% in size; luciferase light after 4 h
# NS1 function inh: qHTS Assay for Inhibitors of Influenza NS1 Protein Function. S. cerevisiae slowed by influenza A NS1, growth recovery by OD600. Potency, µM (doses to about 46.1 µM), without a hit: at the top dose activity, positive = more growth. hit rate 0.4% among 270,000. AID 2326, 2010; further: actives are rising curves; nearly all actives have a fitted effect of over 50% in size
#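 Growth recovery, yeast-based: influenza A NS1 expressed in S. cerevisiae causes slow growth, and suppressors are detected by OD600. The parent strain without NS1 is used as positive control.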
# LASV entry inh: qHTS for Inhibitors of binding or entry into cells for Lassa Virus; Potency, µM (doses to about 37.9 µM), for inactives: at the top dose activity change, negative = inhibition, most hits filed as inhibitors; Lassa virus pseudotype entry inhibition, cell reporter; control for the full effect not named in the record; hit rate 1.2% among 300,000; active means well fitted inhibition curve with a large enough effect; inconclusive means small, poorly fitted or top-dose-only effect, or effect the other way; inactive means flat fitted curve, though single readings scatter; tested in HEK293 cells; further: on the % scale 0 is the no-effect control and ±100 the full control effect; nearly all actives have a fitted effect of over 50% in size; luciferase read-out
# Cruzain inh Det: qHTS Assay for Promiscuous and Specific Inhibitors of Cruzain (with detergent) | hit rate 0.43% among 200,000 | Potency, µM, inactives show max response, negative = inhibition, hits mostly inhibitors | Cruzipain (Trypanosoma cruzi), P25779 | purified cruzain, Z-FR-AMC fluorescence, 0.01% Triton; active means well fitted curve in the direction sought with a large enough effect; inconclusive means small, poorly fitted or top-dose-only effect, or another doubt; inactive means no such curve, though single readings can be large; an effect the other way counts as inactive or inconclusive;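 further: plate controls were neutral wells for no effect and buffer without enzyme for full effect; nearly all actives have a fitted effect of over 40% in size; top concentration of the series not given in the record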
# Target sequence (P25779 123-467 limits assumed): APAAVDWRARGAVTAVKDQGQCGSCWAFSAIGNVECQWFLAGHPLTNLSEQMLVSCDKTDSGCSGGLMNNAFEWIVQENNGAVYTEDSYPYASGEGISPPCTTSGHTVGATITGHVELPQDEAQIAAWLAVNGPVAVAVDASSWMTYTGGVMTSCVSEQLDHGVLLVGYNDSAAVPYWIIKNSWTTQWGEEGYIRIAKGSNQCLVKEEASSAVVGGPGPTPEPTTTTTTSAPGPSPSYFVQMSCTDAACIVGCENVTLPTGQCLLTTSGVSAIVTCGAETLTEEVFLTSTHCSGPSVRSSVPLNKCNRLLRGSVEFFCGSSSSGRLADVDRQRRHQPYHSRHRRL
#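 Compounds were screened in titration against cruzain (1.5 nM) with 0.01% Triton X-100 to counter colloidal aggregation. Activity was the AMC fluorescence increase over 60 s after adding 2 uM Z-FR-AMC at pH 5.5.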
# Marburg entry inh: qHTS for inhibitors of binding or entry into cells for Marburg Virus; Marburg virus pseudotyped entry inhibition, cell reporter; control for the full effect not named in the record; about a third of the inactives were read at about 46 µM; Potency, µM (highest dose often 37.8 µM), for inactives: top-dose activity change, negative = inhibition, usual class: inhibitors; hit rate 1.8% among 300,000; active = well fitted inhibition curve with a large enough effect; inconclusive = small, poorly fitted or top-dose-only effect, or effect the other way; inactive = flat fitted curve, though single readings scatter; tested in HEK293 cells; about a fifth of its hits are not listed in these tables; further: on the % scale 0 is the no-effect control and ±100 the full control effect; luciferase read-out
# Cruzain inh noDet: qHTS Assay for Promiscuous and Specific Inhibitors of Cruzain (without detergent); purified cruzain, Z-FR-AMC fluorescence, no detergent; Potency, µM, without a hit: max response, negative = inhibition, actives largely listed as inhibitors; hit rate 2.3% among 200,000; AID 1476, 2009; active means well fitted curve in the direction sought with a large enough effect; inconclusive means small, poorly fitted or top-dose-only effect, or another doubt; inactive means no such curve, though single readings can be large; an effect the other way counts as inactive or inconclusive;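 further: plate controls were enzyme without inhibitor for no effect and buffer without enzyme for full effect; nearly all actives have a fitted effect of over 40% in size; top concentration of the series not given in the record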
#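 Purified cruzain at 1.5 nM, pre-incubated 15 min with compound at room temperature in 100 mM sodium acetate pH 5.5, 5 mM DTT, 0.00005% Triton X-100. Reaction started with 2 uM Z-FR-AMC; AMC fluorescence increase over 60 s gives rate.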
# RE007 growth inh: qHTS Assay for Inhibitors of the HIV-1 protein Vpr; Potency, µM (series often up to 92.2 µM), inactives show top-dose activity change, negative = less growth; hit rate 0.21% among 360,000; S. pombe RE007 Vpr strain, BacTiter-Glo ATP luminescence, 24 h; control for the full effect not named in the record; active = well fitted falling curve with a large enough effect; inconclusive = small, poorly fitted or top-dose-only effect; inactive = no such curve, though single readings can be large or run the other way;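 further: on the % scale 0 is the no-effect control and ±100 the full control effect; nearly all actives have a fitted effect of over 50% in size; the assay follows cell death caused by Vpr and the record does not say whether a fall means rescue or toxicity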
#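 Fission yeast RE007 carrying one integrated HIV-1 vpr copy, seeded at OD 0.01 in PMG+AL medium with 23 nL pinned compound. Grown 24 h at 30 degrees; viability read by BacTiter-Glo luminescence after 5 min.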
# Active calls of the source: *; ? = inconclusive; · = not tested or not shown; & = joins results of further samples; ! = not confirmed by another sample; [ ] = another dose, or the depositor's remark. Unless noted, the call rests on the fitted dose curve; in most records, active means well fitted rising curve with a large enough effect; inconclusive means small, poorly fitted or top-dose-only effect; inactive means no such curve, though single readings can be large or run the other way. Potency means the concentration at half of the fitted maximal effect. Outcome played no part in choosing rows. Share with any hit: about 4.7%.
SMILES,SARS PLpro yeast,2A StopGo,NS1 function inh,LASV entry inh,Cruzain inh Det,Marburg entry inh,Cruzain inh noDet,RE007 growth inh
Cc1ccc2[nH]c(C(=O)NN=C3CCCCC3)c(-c3ccccc3)c2c1,0%,-14%,?,-8%,·,?,·,3%
CC(C)NC(=O)CSc1nnc(-c2ccc(C(C)(C)C)cc2)n1C,6%,·,-1%,3%,1.2%,11%,8%,-1%
CCOC(=O)c1cc(-c2ccccc2)n(CCCC(=O)Nc2ccc(C(C)C)cc2)c1C,·,-26%,·,-18%[46.1 µM],-4.4%,·,-1%,·
COc1cccc(OCCCOc2ccccc2C(C)C)c1,-5%,·,7%,-1%,-1.9%,1%,0%,1%
Cc1ccccc1-n1c(C)cc(/C=N/Nc2ccc([N+](=O)[O-])cn2)c1C,-6%,21%,12%,-9%,-0.8%,-15%,?,-6%
O=C(c1ccccc1Sc1c(Cl)cccc1[N+](=O)[O-])N1CCOCC1,-12%,-14%,-5%,-2%,-4.8%,?,-7%,·
COc1ccc(CCNC(=O)c2cc(=O)c3ccc(C)cc3o2)cc1OC,0%,?,-4%,?,-2.9%,?,-10%,9%
OC(CNCC1(N2CCCCC2)CCCCC1)COc1ccc(Cl)cc1Cl (stereo unspecified),0%,-28%,·,?,·,?,·,-22%
COc1cc(/C=C2/NC(=O)N(Cc3ccccc3F)C2=O)ccc1O,2%,-2%,·,-28%,·,?,·,3%
COc1ccc(N2CCN(S(=O)(=O)c3ccc(OC)cc3)CC2)cc1,-8%,·,12%,?,-2.8%,-23%,-13%,0%
COc1ccc(C(=O)NC(=S)NCc2ccco2)cc1OC,-9%,-4%,28%,-12%,2.2%,-12%,10%,-25%
O=C(O)c1[nH]c2ccc(Cl)cc2c1CC(=O)N1CCN(c2ccccc2)CC1,1%,-19%,?,3%,-8.5%,11%,?,-25%
COc1ccccc1-c1nnc2sc(COc3ccccc3)nn12,-6%,-17%,-30%,-2%,-5.2%,-18%&-18%,1%,-5%
O=C(O)c1ccc(NC2=C(Cl)C(=O)c3ccccc3C2=O)cc1,-2%,25µM*,0%,·,·,·,·,2%
CN(C(=S)SCc1ccccc1)C1CCS(=O)(=O)C1 (stereo unspecified),13%,?,7%,1%,·,-3%[46.1 µM],·,0%
COc1ccc(CCNC(=O)CN2C(=O)COc3ccc(S(=O)(=O)N4CCOCC4)cc32)cc1OC,2%,24%,-1%,4%[46.1 µM],·,-3%[46.1 µM],·,15%
CCOc1ncccc1C(=O)Nc1ccc2c(c1)OCO2,-3%,32%[activator],·,·,·,15%[46.1 µM],·,2%
COC(=O)Cc1c[nH]c2cccc(OCC(O)CN(Cc3ccccc3)C(C)C)c12 (stereo unspecified),?,?,2%,-17%,-2.4%,?,-9%,13%
CN(Cc1c(C(=O)N/N=C/c2ccc(O)cc2)nnn1-c1nonc1N)C1CCCCC1,-3%,-17%,0%,·,·,·,·,0%
CCOC(=O)c1ccc(NC(=O)c2nc[nH]c2C(=O)N(C)Cc2ccccc2)cc1,0%,-8%,-4%,·,·,·,·,1%
CN(Cc1ccccc1)C(=O)[C@H]1CCC(=O)N1Cc1ccco1,3%,7%,-2%,?,-0.5%,-4%,-5%,-5%
O=c1c2ccccc2c(-c2ccccc2)nn1Cc1ccc(Cl)cc1,9%,-14%,-17%,0%,0.5%,-28%,10%,?
CCNc1nc(NCC)n2c(SCC(=O)Nc3ccccc3C(F)(F)F)nnc2n1,8%,-10%,·,-3%,·,-5%,·,5%
CCOc1ccc(CCNC(=O)Cn2ccc3cc(S(=O)(=O)N4CCCCC4)ccc32)cc1,·,-26%,·,-32%[46.1 µM],-7.3%,·,-11%,·
c1coc(-c2nc(-c3ccco3)c(-c3ccco3)nc2-c2ccco2)c1,7%,0%,3%,-22%,7.9µM*,-8%&-8%,?,-7%
Cc1cc(OC(C)C(=O)NCCc2c[nH]c3ccccc23)c2c(C)cc(=O)oc2c1 (stereo unspecified),1%,0%,-2%,·,·,·,·,-6%
O=C(Nc1cccc(F)c1)c1ccc2c(c1)N(Cc1ccccc1)C(=O)c1ccccc1S2(=O)=O,·,0%,·,-20%[46.1 µM],-2.7%,?,?,·
O=C(Nc1ccccc1Oc1ccccc1)c1cccs1,-3%,-9%,-9%,-20%,·,-17%,·,33%
CCOc1ccc(NC(=NCc2ccc3c(c2)OCO3)SC2CC(=O)N(c3ccc(C(=O)O)cc3)C2=O)cc1 (stereo unspecified),-4%,?,9%,?,?,-12%,24%,13%
Cc1ccc2c(Cl)cc(Cl)c(O)c2n1,·,10µM*!,·,?,4.7%,11µM*,-2%,?
O=C(CCc1c[nH]c2ccccc12)N1CCN(c2ccc(F)cc2)CC1,8%,-1%,-12%,-23%,·,-1%[46.1 µM],·,6%
Cc1ccc(Nc2nnc(SCC(=O)NCCN3C(=O)CSC3=O)s2)cc1C,·,57%[activator],3%,·,-16%,·,5%,-13%
Cc1cccc2c1OCC/C2=N\NC(=O)COc1ccccc1,-4%,54%[activator],1%,-3%,-4.8%,?,9%,23%
COc1cc(CNc2ccc(N3CCOCC3)cc2)cc(Br)c1OC,0%,0%,3%,·,·,·,·,-22%
COc1ccccc1CC(=O)Nc1ccc2c(C)cc(=O)oc2c1,-6%,30%,20%,·,·,·,·,3%
Cn1c(=O)oc2cc(S(=O)(=O)N3CCCC(C(=O)NCc4ccccc4Cl)C3)ccc21 (stereo unspecified),·,-23%,·,14%[46.1 µM],-1.1%,9%[46.1 µM],1%,·
COc1ccc(C(=O)Nc2ccc(NC(=O)Cc3ccccc3)cn2)cc1,-2%,25%,10%,-9%,·,-2%[46.1 µM],·,36%
COCCN=C1OC(=O)N2C(=O)C3=C4[C@@H](C[C@H]5C(=O)N(c6ccccc6)C(=O)[C@H]5[C@H]4[C@@]12Cc1ccccc1)[C@H]1C(=O)N(c2ccccc2)C(=O)[C@H]1[C@H]3C,-1%,-13%,-5%,·,·,·,·,-3%
CCCNC(=O)COc1cccc(C(=O)NCc2ccccc2)c1,19%,-10%,12%,-2%,3.2%,9%,8%,-14%
CC(C)C(=O)N(Cc1cc(=O)[nH]c2ccccc12)c1ccccc1,-1%,-1%,?,1%,3.1%,-3%,-14%,4%
COc1ccc(C(=O)NCc2nc(-c3cccc(C)c3)no2)cc1OC,·,-7%,·,10%[46.1 µM],-2.5%,?,?,·
O=C(COc1ccc(F)cc1)Nc1ccc2c(c1)OCCO2,-7%,0%,-33%,·,·,·,·,11%
CCCCN(C(=O)CNC(=O)c1ccco1)C(C(=O)NC1CCCCC1)c1cccnc1 (stereo unspecified),1%,11%,12%,2%[46.1 µM],·,2%[46.1 µM],·,9%
COc1ccc(-c2cc3ccc(O)c(CN4CCN(C)CC4)c3oc2=O)cc1OC,·,6%,·,17%[46.1 µM],-5.1%,·,-6%,·
Cc1ccc(CNC(=O)CN2CCN(Cc3ccc(F)cc3Cl)C2=O)cc1,·,-9%,·,1%[46.1 µM],0.5%,14%[46.1 µM],5%,·
C=CCn1c(SCC(=O)c2ccc(F)cc2)nnc1-c1ccc2c(c1)OCO2,1%,-5%,·,-12%[46.1 µM],·,-12%[46.1 µM],·,7%
CCc1nnc(N/N=C/c2ccc(N3CCC(C)CC3)c([N+](=O)[O-])c2)n1N,-17%,2%,5%,?,-5.9%,?,0%,?
Cc1cc(C(=O)CN2C(=O)NC3(CCCCC3C)C2=O)c(C)n1Cc1cccs1 (stereo unspecified),-18%,22%,3%,?,-4.5%,?,32µM*,-5%
CC(C)Cc1nc2c(nnn2Cc2ccccc2F)c(=O)[nH]1,-1%,-3%,-5%,·,·,·,·,5%
CCC1(CC)C(=O)NC(=S)N=C1N,·,-9%,·,8%[46.1 µM],·,-4%[46.1 µM],·,23%
# (cont.)
SMILES,SARS PLpro yeast,2A StopGo,NS1 function inh,LASV entry inh,Cruzain inh Det,Marburg entry inh,Cruzain inh noDet,RE007 growth inh
N=c1oc2ccccc2cc1C(=O)Nc1cccc(F)c1,0%,-29%,1%,·,·,·,·,-2%
CCOc1cc(C(=O)Nc2ccc(N3CCN(S(C)(=O)=O)CC3)cc2)cc(OCC)c1OCC,1%,-2%,-6%,?,-1.3%,-23%,-9%,5%
Cc1ccccc1OCC(=O)N(Cc1cccs1)C1CCS(=O)(=O)C1 (stereo unspecified),-2%,10%,?,?,2.5%,-6%,14%,14%
CC(C)OCCCN1CN(S(=O)(=O)c2cccs2)c2nc3ccccc3nc21,-2%,8%,-5%,7%,·,14%[46.1 µM],·,-7%
Cc1cccc(C)c1NC(=O)Cn1c(=O)n(Cc2ccco2)c(=O)c2ccc(C(=O)NC3CCCC3)cc21,·,?,·,?,0.4%,-12%[46.1 µM],-11%,·
O=C(Nc1ccc([N+](=O)[O-])cc1)c1ccccc1F,-3%,37%[activator],·,13%,·,-8%,·,-9%
COc1ccc(CCN(C)C(=O)CNC(=O)Cc2cccc3ccccc23)cc1OC,1%,-12%,12%,6%,·,1%,·,0%
CCOc1ccc(S(=O)(=O)N/N=C2/CCCC(=O)C2)cc1,6%,-8%,14%,12%,-3.4%,?,6%,-2%
CC(=O)N1c2ccc(S(=O)(=O)N3CCC(C(=O)NCc4ccccc4Cl)CC3)cc2CC1C (stereo unspecified),24%,-20%,-2%,·,·,·,·,-10%
COc1ccc(N2CCN(C(=O)COC(=O)CCOc3cc(C)ccc3C)CC2)cc1,1%,-21%,·,0%,·,3%,·,?
CC(C)CN1C(=O)c2ccc(C(=O)Nc3ccncc3)cc2C1=O,-1%,13µM*,-8%,10%,-2.7%,3%,-2%,-3%
CCCOc1ccccc1NP(=O)(Oc1ccccc1)Oc1ccccc1,-1%,-11%,2%,·,·,·,·,-8%
Cc1noc(C)c1C(=O)OCC(=O)NCCc1ccccc1,0%,4%,·,8%,·,-23%,·,7%
